# Screens as filed in PubChem BioAssay.
# KCNQ2 enhance = KCNQ2 (rat) channel potentiation; B-score at 10 µM; 310,000 tested, 0.54% active; CHO-K1 KCNQ2, FluxOR thallium flux fluorescence; hits give high values; AID 2239; O88943;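 active = fluorescence ratio B-score at least 3 SD of library B-scores, with initial fluorescence B-score within 3 SD, cut at about 5.3 in these data; same plate scores as AID 2156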;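 note: B-score of peak minus minimum over baseline fluorescence ratio after K+ and Tl+ stimulus; positive B-score means potentiation of KCNQ2 with more thallium influx and brighter signal; only the inactives scoring about 0 or higher are listed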
# Target sequence (O88943 whole entry, looked up): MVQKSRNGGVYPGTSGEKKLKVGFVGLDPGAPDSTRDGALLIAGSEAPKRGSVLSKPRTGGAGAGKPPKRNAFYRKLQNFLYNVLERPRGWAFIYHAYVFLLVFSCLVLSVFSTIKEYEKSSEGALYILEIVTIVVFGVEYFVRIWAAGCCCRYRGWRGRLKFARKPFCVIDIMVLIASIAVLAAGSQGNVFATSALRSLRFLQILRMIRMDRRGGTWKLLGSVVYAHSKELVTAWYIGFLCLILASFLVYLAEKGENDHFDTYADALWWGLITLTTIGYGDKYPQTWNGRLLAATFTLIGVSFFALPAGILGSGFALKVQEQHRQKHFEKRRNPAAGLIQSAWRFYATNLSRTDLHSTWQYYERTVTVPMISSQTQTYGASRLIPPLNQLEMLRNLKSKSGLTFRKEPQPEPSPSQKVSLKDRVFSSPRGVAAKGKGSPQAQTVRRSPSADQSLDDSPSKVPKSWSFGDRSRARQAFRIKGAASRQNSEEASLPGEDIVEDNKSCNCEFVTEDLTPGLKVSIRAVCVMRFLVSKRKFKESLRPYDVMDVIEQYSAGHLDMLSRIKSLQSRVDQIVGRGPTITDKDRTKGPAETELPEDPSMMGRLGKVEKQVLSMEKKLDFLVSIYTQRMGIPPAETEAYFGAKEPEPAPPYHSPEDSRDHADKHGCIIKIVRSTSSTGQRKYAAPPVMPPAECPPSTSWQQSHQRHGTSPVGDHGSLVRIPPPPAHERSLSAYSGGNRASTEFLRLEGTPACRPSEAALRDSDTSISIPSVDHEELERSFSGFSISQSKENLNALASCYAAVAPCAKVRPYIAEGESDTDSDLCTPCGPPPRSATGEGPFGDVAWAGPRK
# KCNQ2 enhance baseline = recorded beside KCNQ2 enhance, whose call it bears; B-score; compound at 10 µM; measured here: initial fluorescence intensity artifact check;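 brightness before thallium and not channel activity; 0 = typical well and far values either way flag optical interference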
# * marks the source's active call; other numbers are inactive results.
KCNQ2 enhance baseline,KCNQ2 enhance,molecule
-0.04,0.28,Cc1ccc(Nc2nnc(SC(C)C(=O)Nc3c(C)n(C)n(-c4ccccc4)c3=O)s2)cc1 (stereo not given)
-1.2,4.1,COc1ccc(CN2C(=O)c3cccnc3C2Nc2cc(Cl)ccc2OC)cc1 (stereo not given)
-0.32,0.97,CCOc1ccc(CCNc2nc3ccccc3n3c(C)nnc23)cc1OCC
-1.7,0.19,COc1ccccc1CN(C)CC(=O)Nc1ccccc1-c1ccccc1
1.8,0.02,O=c1[nH]c(CSc2nnc(-c3cccnc3)n2C2CCCCC2)nc2ccccc12
-0.7,1.3,NC(=O)COC(=O)c1cccc2c1-c1ccccc1C2=O
0.12,0.79,O=C(NC(=S)Nc1cc([N+](=O)[O-])ccc1O)c1cccnc1
-1.8,0.07,COc1ccc(NC(=O)N2CCN(C(=O)C(Cc3ccc(F)cc3)NC(C)=O)CC2)cc1 (stereo not given)
-0.4,0.06,Cc1cc2nnc(SCc3ccccc3)n2c(N)n1
-1.1,1.8,COc1ccc(CN=C2NC(=O)CC(C(=O)Nc3cc(C)cc(C)c3)S2)cc1 (stereo not given)
0.26,0.61,CCn1cc(C(=O)N2CCOCC2)c(=O)c2cc(S(=O)(=O)N(C)C3CCCCC3)ccc21
-0.83,3,Cc1nn(-c2ccccc2)c(C)c1NC(=O)COC(=O)CC(C)c1ccccc1 (stereo not given)
0.98,1.1,COc1ccc(N2CCN(c3ccc4nnc(CCC(=O)Nc5ccc(C)cc5)n4n3)CC2)cc1
1.2,0.17,COc1ccccc1N1CCN(Cc2cc(=O)n3ccsc3n2)CC1
0.09,0.94,CC(=O)NC(CC(=O)O)c1ccc(F)cc1 (stereo not given)
-0.79,0.06,COc1ccc(/C=N/NC(=O)c2cccc(Br)c2)cc1CSc1ccccn1
-0.15,1.2,CC(C)c1nc(SCC(=O)NCc2ccccc2)n[nH]1
-3.3,0.83,Cc1sc2nc(CN3CCCCC3)nc(Cl)c2c1C
-0.43,0.12,COc1cc(C(=O)NNC(=O)NC2CCCCC2)cc(OC)c1OC
0.93,0.39,Cc1ccc(CCNC(=O)CCn2ccc3cc(S(=O)(=O)N4CCCC4)ccc32)cc1
0.11,0.51,Cn1cnnc1Sc1ccc(S(C)(=O)=O)cc1[N+](=O)[O-]
-1.4,1.8,Cc1cccc(C(=O)OCC(=O)N2CC(C)OC(C)C2)c1C (stereo not given)
1.1,0.12,COc1ccc(N2CCN(C(=O)c3sc4nc(-c5ccc(F)cc5)cn4c3C)CC2)cc1
-1.5,0.39,O=C(/C=C/c1ccc(Br)cc1)Nc1ccc(S(=O)(=O)Nc2ncccn2)cc1
0.6,0.3,Cc1cc(C)c(NC(=O)CO/N=C2\CCCc3nonc32)c(C)c1
-0.59,0.38,CCC(=O)Nc1cccc(-c2ccc(N3CCN(C)CC3)nn2)c1
1.3,0.19,Cc1ccc(-c2cc(C(=O)N3CCc4ccccc4C3)[nH]n2)cc1C
-0.1,0.36,CCc1ccc(Nc2ncc3c(n2)CC(c2ccco2)CC3=O)cc1 (stereo not given)
1.5,0.22,CCOC(=O)N1CCN(C(=O)C2CC(=O)N(Cc3ccc(OC)cc3)C2)CC1 (stereo not given)
-0.01,0.81,Cc1nc2c(C(=O)O)cnn2c(C)c1Cc1ccccc1F

# Reformatted tab-delimited: seven of the compounds above
Structure	KCNQ2 enhance baseline	KCNQ2 enhance
Cc1cccc(C(=O)OCC(=O)N2CC(C)OC(C)C2)c1C (stereo not given)	-1.4	1.8
COc1ccc(N2CCN(C(=O)c3sc4nc(-c5ccc(F)cc5)cn4c3C)CC2)cc1	1.1	0.12
O=C(/C=C/c1ccc(Br)cc1)Nc1ccc(S(=O)(=O)Nc2ncccn2)cc1	-1.5	0.39
Cc1cc(C)c(NC(=O)CO/N=C2\CCCc3nonc32)c(C)c1	0.6	0.3
CCC(=O)Nc1cccc(-c2ccc(N3CCN(C)CC3)nn2)c1	-0.59	0.38
Cc1ccc(-c2cc(C(=O)N3CCc4ccccc4C3)[nH]n2)cc1C	1.3	0.19
CCc1ccc(Nc2ncc3c(n2)CC(c2ccco2)CC3=O)cc1 (stereo not given)	-0.1	0.36

# New compounds follow
KCNQ2 enhance baseline,KCNQ2 enhance,molecule
0,0.87,O=C(c1cc(S(=O)(=O)N2CCCCC2)ccc1Cl)N1CCOCC1
0.1,1.1,CCOC(=O)c1sc2cccc(Cl)c2c1N
0.34,0.88,Cc1nnc(NC(=O)CSc2nccn2-c2ccc(F)cc2)s1
-0.52,0.3,O=C(CCCOc1ccc(Cl)cc1)NCCc1ccccc1
1.4,0.32,Cc1cc(-c2nnc(-c3cccc(C(F)(F)F)c3)o2)no1
0.55,0.02,COc1cc(Cl)c(S(=O)(=O)NCCCn2ccnc2)cc1Cl
1.1,0.08,CCc1ccc(C(=O)Nc2cc(C)on2)o1
1.7,0.5,COc1cc(C(=O)N(C)CC(=O)Nc2cccc(F)c2)ccc1OCc1ccccc1
0.57,0.96,Cc1cc(/C(N)=N/OC(=O)c2ccc(Cl)cc2)no1
-0.46,1.8,COc1ccccc1OCC(=O)NCC1CCCN(C(=O)c2ccccc2C(C)=O)C1 (stereo not given)
1.1*,9.6*,O=C(CC1CCC1)Nc1cccc2c([N+](=O)[O-])cccc12
0.36,1.7,C=CCOc1ccc(/C=C2/C(=O)ON=C2C)cc1OCC
-0.6,0.75,Cc1cccc(CSc2nnc(Cn3c(=O)sc4ccccc43)n2C)c1
0.19,0.05,N#Cc1cc(-c2ccccc2)nnc1Sc1ccc(F)cc1
-0.78,0.53,COCCn1nnnc1C(c1cc2cc(C)ccc2[nH]c1=O)N1CCN(C2CCCCC2)CC1 (stereo not given)

# 3 successive compounds out of the list so far, quoted:
KCNQ2 enhance baseline,KCNQ2 enhance,molecule
-0.6,0.75,Cc1cccc(CSc2nnc(Cn3c(=O)sc4ccccc43)n2C)c1
0.19,0.05,N#Cc1cc(-c2ccccc2)nnc1Sc1ccc(F)cc1
-0.78,0.53,COCCn1nnnc1C(c1cc2cc(C)ccc2[nH]c1=O)N1CCN(C2CCCCC2)CC1 (stereo not given)

# (next part)
KCNQ2 enhance baseline,KCNQ2 enhance,molecule
-1.4,0.57,O=C(CSc1nnc(-c2cccnc2)n1C1CCCCC1)NC1CCCC1
-1.6,1.2,Cc1ccc(C)c(OCCC(=O)OCC(=O)Nc2ccc(N3CCOCC3)cc2)c1
0.18,0.35,Cc1cccc(NS(=O)(=O)c2ccc3[nH]c(=O)[nH]c3c2)c1C
0.07,0.83,C=C(C)c1cccc(C(C)(C)NC(=O)Nc2cc(C)ccn2)c1
-0.65,2.1,Cc1ccc(C(=O)NC(=S)N2CCCC2)cc1
1.9,0.14,Cc1ccc(C)c(S(=O)(=O)c2c(C)cc(C)[nH]c2=O)c1
-0.65,3,O=C(CC(=O)c1ccccc1O)c1cccc(F)c1
0.24,0.52,CC1(C)CC(=O)C=C(Nc2ccc(Cl)c(Br)c2)C1
-0.69,0.01,CC(CC(=O)NC1CCCCC1)S(=O)(=O)c1ccc2c(c1)NC(=O)CO2 (stereo not given)
-2.9,1.2,NC1=NC(=O)/C(=C/c2ccsc2)S1
-2.3,0.6,Cc1cc(N2CCCc3ccccc32)n2ncnc2n1
0.18,0.77,Cc1c(NC(=O)OCCNC(=O)COc2c(Cl)cccc2Cl)sc(=S)n1C
1.3,1.1,CCOC(=O)N1CCC(NC(=O)Cn2ncc3ccccc32)CC1
0.66,0.87,CCC(C)(C)NC(=O)CN(Cc1ccc2c(c1)OCO2)C(=O)CCC(=O)Nc1cc(C)ccn1
0.16,0.87,COc1ccc(S(=O)(=O)NC(C)C(=O)Nc2ccc3c(c2)OCCO3)cc1OC (stereo not given)

# Fetched one by one from the list above, 2 records:
KCNQ2 enhance baseline,KCNQ2 enhance,molecule
-1.7,0.19,COc1ccccc1CN(C)CC(=O)Nc1ccccc1-c1ccccc1
-2.3,0.6,Cc1cc(N2CCCc3ccccc32)n2ncnc2n1

# Carrying on.
KCNQ2 enhance baseline,KCNQ2 enhance,molecule
-0.5,3.1,Fc1ccc(-c2cc3nc4c(c(N5CCOCC5)n3n2)CCCC4)cc1
0.36,1.4,Cc1cccc(OC(C)C(=O)Nc2nccs2)c1 (stereo not given)
-0.76,1.1,O=C(c1ccc(Br)cc1)c1coc2ccc(O)cc12
-0.22,0.11,O=C(Cn1nnc(-c2ccccc2)n1)NNC(=O)c1ccco1
1.9,0.01,Cc1ccc(NC(=S)N(CCCN2CCC(C)CC2)Cc2ccco2)cc1
1.2,0.1,CCOc1ccc(Cl)cc1Nc1nc(NCCO)nc(N2CCCC2)n1
-1.2,1.6,CN(C)CCN(C(=O)c1ccc(S(=O)(=O)N(C)CC2CCCO2)cc1)c1nc2cc3c(cc2s1)OCO3 (stereo not given)
-0.04*,5.3*,O=C(Nc1cccc(O)c1)c1cc(S(=O)(=O)N2CCCC2)ccc1Cl
-0.03,0.75,O=C(Cc1cccs1)NCc1cn2ccccc2n1
-0.01,1.7,COC(=O)c1ccccc1NC(=O)CSc1n[nH]c(C)n1
-0.2,1.4,O=S(=O)(NCc1cccnc1)c1ccc(Cl)cc1
2,1.2,COC(=O)CC1C(=O)NCCN1C(=O)OC(C)(C)C (stereo not given)
0.12,0.66,COc1cc(CNC(=O)CCCC(=O)c2ccccc2)cc(OC)c1OC
-0.7,1.9,O=C(C1CC1)N1CCN=C1SCc1ccccc1
1.2,0.38,C/C(=N\NC(=O)c1ccc(NS(=O)(=O)c2cccs2)cc1)c1ccccc1
-1.5,1.6,CCCOc1ccc(C(=O)CCNc2cccc(Cl)c2)cc1
1.4,1.2,COc1ccc(NC2CCCN(C(=O)CSc3ccccn3)C2)cc1OC (stereo not given)
-0.1,2,O=C(Oc1coc(CSc2ncccn2)cc1=O)c1ccccc1[N+](=O)[O-]
1.2,0.23,CN(C)S(=O)(=O)c1ccc(NC(=O)CN2CCc3ccccc32)cc1
1.3,0.06,O=C(c1ccc(Br)cc1)N1CCC2(CC1)NCCc1[nH]cnc12
-0.97,0.22,COc1cc(OC)cc(-n2nnnc2SCC(=O)N2CCCc3ccccc32)c1
-0.3,0.5,O=C(Nc1ccccc1)Nc1nnc(COc2ccccc2F)s1
-1.1,0.42,Cc1ccn2cc(-c3cccc(S(=O)(=O)N4CCCC4)c3)nc2c1
0.42,0.03,Cc1ccc(NC(=O)CSCc2n[nH]c(=O)[nH]2)c(Br)c1
-0.52,0.26,CCn1c2ccccc2c2cc(NC(=O)CSc3nnnn3-c3ccccc3)ccc21
-2.4,0.24,CC1=CC2=NC(=O)/C(=C\c3cn(C)c4ccccc34)C(=N)N2O1
0.31,1.4,O=C(CSc1nnc(SCc2ccc(Cl)cc2)s1)N/N=C/c1ccc(C(=O)O)cc1
-0.03,1.1,COc1cc(C(=O)NCCOc2ccc(C)c(C)c2)cc(OC)c1OC
0.08,0.05,CN(C)c1ccnc2sc(C(=O)NCc3ccccc3)c(N)c12
-0.51,0.59,O=C(CNC(=O)c1ccccc1Cl)c1ccccc1
-1.2,0.09,O=C1OC(C(=O)NCc2ccccc2)Cc2ccccc21 (stereo not given)
-0.26,0.61,O=C(CCc1nc2ccccc2c(=O)[nH]1)Nc1ccccc1N1CCCC1
0.81,0.38,CSc1ccccc1NC(=O)CSc1n[nH]c(C)c1[N+](=O)[O-]
-1.7,1.2,CCOc1ccccc1CNS(=O)(=O)c1ccc2[nH]c(=O)sc2c1
0.11,0.75,O=C(Oc1ccccc1Cl)c1ccc2c(=O)n3c(nc2c1)CCC3
0.49,0.07,CCc1ccc(NC(=O)C2CCCN2C(=O)NC2CCCCC2)cc1 (stereo not given)
-0.96,1.7,CCC(CC)c1nnc(NC(=O)C23CC4CC(CC(NC(C)=O)(C4)C2)C3)s1
2,2.1,O=C(COc1ccc2oc(-c3ccccc3)cc(=O)c2c1)NCc1ccco1
-0.32,1.3,Fc1cccc(CNC2CCN(CCc3ccccc3)CC2)c1
0.2,1.4,Cn1c(N)c(S(=O)(=O)N2CCN(Cc3ccccc3)CC2)c(=O)n(C)c1=O
1.1,1.5,Cc1ccc(C)c(OCCC(=O)OCC(=O)Nc2cc(S(=O)(=O)N3CCOCC3)ccc2C)c1
-0.1,0.51,CC(C)(C)OC(=O)N/N=C\C=C\c1ccc2c(c1)OCO2
-1.5,2,O=C(O)/C=C/C(=O)NNC(=O)c1ccccc1Br
1.4,1,CCOC(=O)C1=NN(c2ccc([N+](=O)[O-])cc2)CC1C(=O)OC (stereo not given)
0.04,0.28,CC(C)(C)OC(=O)N/N=C/c1c[nH]c2ccccc12
-0.17,0.26,O=C(Nc1ccc(C(=O)O)cc1)/C(=C\c1ccco1)NC(=O)c1ccco1
-1.2,0.06,Cc1c(N=c2scc(-c3ccccc3)n2CCO)c(=O)n(-c2ccccc2)n1C
-1.2,1.8,COCCNC(=O)c1ccc2c(c1)nc(C)n2-c1cc(OC)c(OC)c(OC)c1
-0.04,0.44,COc1ccccc1NC(=O)CN(c1ccc(C23CC4CC(CC(C4)C2)C3)cc1)S(C)(=O)=O
-0.02,1.3,Cc1ccc(SCCC(=O)Nc2ccc(OCc3ccccc3)cc2)cc1
-1.4,0.76,CC1CC(c2ccccc2)NS(=O)(=O)O1 (stereo not given)
2.2,0.89,COc1cc(NC(=O)C(F)(F)F)cc(OC)c1
1.1,0.39,Cc1ccc2nc(/C(C#N)=C\c3cc(O)ccc3[N+](=O)[O-])[nH]c2c1
-0.49,0.39,C/C=C\C=C\C(=O)Nc1cccc(C2=NOC3(C2)C[C@H](C(N)=O)N(C(=O)c2ccccc2C(=O)c2ccccc2)C3)c1 (stereo not given in full)
0.81,1,Cc1ccccc1OCC(O)Cn1c(Br)nc2c1c(=O)n(C)c(=O)n2C (stereo not given)
0.66,1.5,Cc1cc(=O)n(CCC(=O)O)c2ccccc12
0.66,0.7,COc1ccc2oc(C(=O)Nc3ccc(N4CCOCC4)cc3)c(C)c2c1
-0.77,0.14,CCCC(=O)Nc1ccccc1NC(=O)c1ccc(OC)cc1
-0.96,1.3,COC(=O)CSc1nnnn1-c1cccc2ccccc12

# This is a subset; the hit share may differ from the screen's.
